PrPC TRFRET: inhibitors of human cell surface prion protein PrPC, primary screen, cell-based, TR-FRET. TR-FRET read-out. inhibition, % at 13.8 µM. AID 720596, 2013. Major prion protein (Homo sapiens), P04156. hit rate 0.43% among 370,000; in the data active means inhibition above about 24%; further: 0% = median of the test wells and 100% = reference compound wells
Anthrax LF inh2: Bacillus anthracis LF protease inhibitors, primary screen, biochemical, multiplex microsphere, MLPCN library. Lethal factor (Bacillus anthracis), P15917. multiplex microsphere protease cleavage assay. inhibition, % at 10 µM. hit rate 0.12% among 360,000. AID 588501, 2011; in the data active means inhibition above about 30%; further: plate controls were buffer without enzyme for full effect and enzyme alone for no effect
TcdB GH inh: TcdB glycohydrolase inhibitors, primary screen, biochemical, single point, plate reader; hit rate 0.24% among 350,000; inhibition, % at 9.99 µM; TcdB glycohydrolase enzymatic assay; Toxin B (Clostridioides difficile), P18177; in the data active means inhibition above about 10%
* hit, by the source's call; nt = no result given.

mol | TcdB GH inh | PrPC TRFRET | Anthrax LF inh2
CCOc1ccccc1C1NC(=O)c2ccccc2N1 (configuration not stated) | -8.2 | 13.5 | 4.1
Cc1nn(CC(=O)O)c(C)c1Cl | nt | 4.9 | -0.3
C[C@H](C(=O)O)c1cccc(C(=O)c2ccccc2)c1 | 0.4 | 2.3 | -1.5
COc1ccc(C2CC(c3ccccc3)=NN2C(=O)CCCC(=O)O)cc1 (configuration not stated) | 0.5 | -0.9 | -1.0
NC(=O)c1c(NC(=O)c2ccccc2F)sc2c1CCC2 | nt | nt | -7.9
CC(=O)Nc1cccc(-c2nnc(-c3ccc(C)cc3)o2)c1 | 0.6 | 7.1 | -10.5
O=C(O)c1cc(NS(=O)(=O)c2cccc3ccccc23)ccc1O | nt | 2.7 | -2.6
O=C(c1ccc(NS(=O)(=O)c2ccccc2)cc1)N1CCN(c2ccccc2)CC1 | 0.1 | 0.8 | -2.8

No new results follow: four of the compounds above.
mol | TcdB GH inh | PrPC TRFRET | Anthrax LF inh2
CCOc1ccccc1C1NC(=O)c2ccccc2N1 (configuration not stated) | -8.2 | 13.5 | 4.1
Cc1nn(CC(=O)O)c(C)c1Cl | nt | 4.9 | -0.3
C[C@H](C(=O)O)c1cccc(C(=O)c2ccccc2)c1 | 0.4 | 2.3 | -1.5
COc1ccc(C2CC(c3ccccc3)=NN2C(=O)CCCC(=O)O)cc1 (configuration not stated) | 0.5 | -0.9 | -1.0

The list is partial; the hit share may differ from the screen's.
